Assay outcomes as filed in PubChem.
UCH37 inh = inhibitors of human UCH37 deubiquitinase, primary screen, biochemical, Ub-AMC cleavage, fluorescence. Ubiquitin carboxyl-terminal hydrolase isozyme L5 (Homo sapiens), Q9Y5K5. purified proteasome/UCH37. inhibition, % (test concentration not listed). actives 0.33% (n = 330,000). AID 588478, 2011;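 active = mean of two replicates above 20%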;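 also: 0% = compound-free wells with enzyme and 100% = wells lacking proteasome; stock transfer was 100 nL into about 20 µL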
Target sequence (Q9Y5K5 whole entry, looked up): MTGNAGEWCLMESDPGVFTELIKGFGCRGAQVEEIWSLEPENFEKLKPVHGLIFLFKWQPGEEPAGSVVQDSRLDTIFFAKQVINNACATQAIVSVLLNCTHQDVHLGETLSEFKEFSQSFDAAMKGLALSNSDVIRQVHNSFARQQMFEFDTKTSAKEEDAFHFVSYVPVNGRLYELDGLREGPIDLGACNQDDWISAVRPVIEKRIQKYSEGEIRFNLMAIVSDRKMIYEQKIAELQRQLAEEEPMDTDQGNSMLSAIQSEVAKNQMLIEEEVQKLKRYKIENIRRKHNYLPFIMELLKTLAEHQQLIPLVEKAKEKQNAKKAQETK
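Schedule: 30 min plus 25 min, room temperature / Material: human UCH37 within purified proteasomes / Technique: AMC fluorescence intensity at 355/460 nm / Buffer or medium: pH 7.4 Tris-HCl (50 mM) with ovalbumin, ATP-MgCl2, DTT / Controls: wells without proteasome as full block, compound-free enzyme plus substrate as uninhibited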
E coli growth = E. coli growth inhibition, primary screen, OD600. Escherichia coli growth, 23 h; active compounds read low. OD600 absorbance (no concentration beside the values). actives 0.21% (n = 330,000). AID 1053175, 2014;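 active = OD600 absorbance below the run mean of sample wells minus 3.6 SD, in any replicate, cut at about 0.56 in these data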;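 also: stock transfer was 300 nL into about 60 µL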
Starred values were filed as active, the others as inactive; & = joins results of further samples.

Start of the listing, in advance:
SMILES	UCH37 inh	E coli growth
CCc1ccc2nc(N=C(N)NC(=O)c3ccccc3)nc(C)c2c1	-0.4	0.64
C=CCc1cccc(C=Nc2ncn[nH]2)c1O	2.0	0.66
CCOC(=O)C(=NNc1ccc(OC)cc1)Sc1nnc(CCc2ccccc2)n1-c1ccccc1	3.8	0.69
Cn1c(N=Cc2ccc3c(c2)OCO3)nc2ccccc21	5.0	0.69
Cc1cc(C(=O)NN=Cc2c[nH]c3ccccc23)cs1	8.8	0.71
O=C(NN=Cc1ccc(O)c(O)c1)C1CC1	-2.6	0.65
NC(=S)NN=Cc1ccc(-c2cc(Cl)c(Cl)cc2Cl)o1	-19	0.65
CSc1ccc(C=NNC(=O)CNc2ccc(C)cc2)cc1	1.4	0.71
CCOc1ccc(Br)cc1C=NO	3.4	0.74
Cc1cc(C)n(N=Cc2c[nH]c3ccccc23)c(=O)c1	1.9	0.66
CCOc1ccc(NC(=S)NN=C(C)Cc2ccc(OC)cc2)cc1	1.1	0.64
CCOc1ccc2ccccc2c1C=NNC(=O)CNC(=O)C(c1ccccc1)c1ccccc1	-14	0.7
CC(=NNC(=O)c1ccn(C)n1)c1ccncc1	5.0	0.62
CC(=NNC(=O)CN(c1ccccc1)S(=O)(=O)c1ccccc1[N+](=O)[O-])C(C)(C)C	2.3	0.65
COc1ccc(C=NNC(=O)C(=O)N2CCCCCC2)cc1	2.0	0.71
CC(=NNC(=S)NC1CCCCC1)c1cccc(Br)c1	1.9	0.7
CC(=NNc1nccnc1Cl)c1c(F)c(F)c(F)c(F)c1F	2.0	0.67

The list itself, from the start:
SMILES	UCH37 inh	E coli growth
CCc1ccc2nc(N=C(N)NC(=O)c3ccccc3)nc(C)c2c1	-0.4	0.64
C=CCc1cccc(C=Nc2ncn[nH]2)c1O	2.0	0.66
CCOC(=O)C(=NNc1ccc(OC)cc1)Sc1nnc(CCc2ccccc2)n1-c1ccccc1	3.8	0.69
Cn1c(N=Cc2ccc3c(c2)OCO3)nc2ccccc21	5.0	0.69
Cc1cc(C(=O)NN=Cc2c[nH]c3ccccc23)cs1	8.8	0.71
O=C(NN=Cc1ccc(O)c(O)c1)C1CC1	-2.6	0.65
NC(=S)NN=Cc1ccc(-c2cc(Cl)c(Cl)cc2Cl)o1	-19	0.65
CSc1ccc(C=NNC(=O)CNc2ccc(C)cc2)cc1	1.4	0.71
CCOc1ccc(Br)cc1C=NO	3.4	0.74
Cc1cc(C)n(N=Cc2c[nH]c3ccccc23)c(=O)c1	1.9	0.66
CCOc1ccc(NC(=S)NN=C(C)Cc2ccc(OC)cc2)cc1	1.1	0.64
CCOc1ccc2ccccc2c1C=NNC(=O)CNC(=O)C(c1ccccc1)c1ccccc1	-14	0.7
CC(=NNC(=O)c1ccn(C)n1)c1ccncc1	5.0	0.62
CC(=NNC(=O)CN(c1ccccc1)S(=O)(=O)c1ccccc1[N+](=O)[O-])C(C)(C)C	2.3	0.65
COc1ccc(C=NNC(=O)C(=O)N2CCCCCC2)cc1	2.0	0.71
CC(=NNC(=S)NC1CCCCC1)c1cccc(Br)c1	1.9	0.7
CC(=NNc1nccnc1Cl)c1c(F)c(F)c(F)c(F)c1F	2.0	0.67
CCOc1cc(C=NNc2nc(=O)[nH]nc2C)ccc1O	18	0.67
COc1ccc(C=Nn2c(=O)[nH]c3c([nH]c4ccc(F)cc43)c2=O)cc1CN1CCCCC1	-2.6	0.65
CC1(C)CC(=O)/C(=C(\O)CCCN2C(=O)c3ccccc3C2=O)C(=NC(C)(C)C)C1	0.6	0.7
COc1ccc(C=Nn2nnnc2N)c(OC)c1	2.3	0.66
CCOc1cc(C=NN2C(=O)NC3(CCCCC3)C2=O)cc(Br)c1O	-3.9	0.64
S=c1[nH]nc(-c2cccnc2)n1N=Cc1ccc(Br)s1	0.1	0.7
Cc1ccccc1C(=O)ON=C(c1ccccc1)c1ccccn1	5.3	0.7
Cc1ccc(C(=O)NCC(=O)NN=Cc2cccs2)cc1[N+](=O)[O-]	0.4	0.64
O=C(NN=Cc1ccco1)c1cccc(N2Cc3ccccc3C2)c1	3.4	0.7
CC(=O)Oc1ccc(C(C)=NN2CCN(Cc3ccc(Cl)cc3)CC2)cc1	3.2	0.71
O=C(NN=Cc1ccccn1)c1ccc2nc[nH]c2c1	4.4	0.66
N#CC(=NO)c1nc(-c2ccccc2)cs1	6.0&9.4	0.67&0.65
COc1ccc(C=NN2C(=O)C3C4C=CC(C4)C3C2=O)cc1[N+](=O)[O-] (stereo unspecified)	5.7	0.71
CC(=O)N(C(C)=O)c1nc(-c2ccccc2)cn1N=Cc1ccccc1	4.5	0.66
COc1ccc(NC(C)C(=O)NN=Cc2ccccc2OCc2cccc(Br)c2)cc1 (stereo unspecified)	3.5	0.73
O=[N+]([O-])c1cc(C=NN2CCCCC2)ccc1Cl	2.3	0.68
Cc1ccc(NC(=O)ON=Cc2ccc(N(C)C)cc2)cc1	0.6	0.67
CCOc1ccc(C=NOCC(=O)Nc2ccc(OCc3ccccc3)cc2)cc1OC	-2.0	0.72
O=C(Cc1ccccc1)NN=C/C=C/c1cccc([N+](=O)[O-])c1	1.9	0.65
N#CCC(=O)NN=Cc1ccc(OCC(=O)Nc2ccc(F)cc2)cc1	0.0	0.73
Cc1nnc(NN=Cc2ccc(-c3cccc(C(=O)O)c3)o2)n1N	-24	0.64
CC1(C)C(c2cccs2)=[N+]([O-])C2(CCCCCC2=NO)N1O (stereo unspecified)	-0.9	0.66
COc1cc(C=NNC(=O)c2ccc(Cn3cc(Br)c([N+](=O)[O-])n3)o2)cc(OC)c1O	7.6	0.68
O=C(Nc1ccccc1)ON=C(c1ccccc1)c1ccccn1	5.3	0.68
CC(=O)O[C@]1(C(C)=O)CCC2C3CCC4=CC(=NOCC(=O)O)CC[C@]4(C)C3CC[C@@]21C (stereo partly specified)	2.9	0.66
CC1(CC(=O)NN=Cc2ccc(-c3cccc(C(F)(F)F)c3)o2)OCCO1	-4.2	0.68
CCn1c(SCC(=O)NN=Cc2c[nH]c3ccccc23)nnc1-c1ccc(Cl)cc1	4.6	0.7
COc1cccc(C(=O)NN=C(CCC(=O)O)c2ccccc2)c1	4.8	0.71
CSCCC(C(O)=C(C#N)c1nc2ccccc2[nH]1)N1C(=O)c2ccccc2C1=O (stereo unspecified)	4.7	0.75
O=C(NN=Cc1ccco1)c1ccn[nH]1	2.8	0.68
Cc1cc(C=Nn2cnnc2)c(C)n1-c1ccc2ncccc2c1	-0.4	0.64
O=C(Oc1ccc(C=NNC(=O)c2ccccn2)cc1)c1ccc(Br)cc1	-23	0.68
CC1CCCC1C(=NO)c1ccccc1 (stereo unspecified)	2.7	0.64
More compounds follow.
SMILES	UCH37 inh	E coli growth
COc1cc(C=NS(=O)(=O)CCc2ccccc2)cc(OC)c1O	7.9	0.67
COc1ccc(CCCC(=O)NN=Cc2cccc(OC)c2O)cc1C	0.0	0.69
Cn1ncc(C#N)c1N=CN1CCOCC1	0.9	0.7
Cc1nc2ccccc2nc1NN=Cc1ccc(O)cc1	8.1	0.67
O=C(NC1CCCCC1)C(=NO)c1ccccn1	-0.2	0.68
O=c1oc2ccccc2nc1C=C(O)/C=C/c1ccc(F)cc1	7.8	0.69
COc1ccc(C=NNC(=O)C2COc3ccccc3O2)cc1O (stereo unspecified)	1.7	0.69
CC(=NNC(=O)CN1CCN(Cc2ccccc2)CC1)c1ccncc1	-0.9	0.66
CC(=O)Nc1cccc(C(=O)NN=Cc2ccc(F)cc2)c1	5.9	0.72
O=C(NN=Cc1ccccc1C(=O)O)c1ccc(COc2cccc3cccnc23)cc1	-6.9	0.69
O=C(O)c1cccc(NC(=S)NN=Cc2ccccc2OCc2ccc(Br)cc2)c1	12	0.71
Cc1ccc2nc(-c3ccccn3)cc(C(=O)NC3CCN(C)CC3)c2c1	-57	0.71
COCCNC(=S)NN=C(C)c1ccc(OC(F)F)cc1	3.6	0.7
COc1ccc(C=NNC(=O)CCCC(=O)NC2CCCCC2)cc1	2.7	0.67
COc1ccc(C=NNC(=O)CCC(=O)Nc2ccccc2)cc1OC	1.9	0.72
O=S(=O)(NN=Cc1c(F)cccc1Cl)c1ccccc1	-0.6	0.71
Cc1ccc([N+](=O)[O-])cc1-c1ccc(C=Nn2nnnc2N)o1	4.3	0.68
Cc1ccc(S(=O)(=O)ON=C2CCCc3occc32)cc1	3.0	0.7
CC1CCCC(=NNc2ccc([N+](=O)[O-])cc2[N+](=O)[O-])C1 (stereo unspecified)	-1.4	0.75
CC(=NNS(=O)(=O)c1cc(C)ccc1C)c1c[nH]c2ccccc12	6.8	0.7
CC(=O)C(=NNc1ccccc1C)N1CCOCC1	7.6	0.69
Cc1c2c(nc3nc4ccccc4n13)CCCC2=O	5.1	0.63
COc1cc(C=NNC(=O)c2ccc(-n3cccc3)cc2)ccc1O	-1.9	0.67
O=C(C=NO)NCc1ccncc1	1.7	0.72
COc1ccc(C=NNC(=O)Nc2ccc3nsnc3c2)c(OC)c1	-1.3	0.73
CCc1ccc(NC(=O)CON=C(C)c2cc3ccccc3o2)cc1	-0.5	0.66
O=C(COc1ccc(C=NNC(=O)c2ccccc2O)cc1)Nc1ccccc1	-269	0.7
CC(=NNC(=O)c1ccccc1)c1ccc2c(c1)OCO2	3.0	0.7
O=C(NN=CC1CC=CCC1)c1ccc(O)cc1O (stereo unspecified)	3.0	0.68
O=[N+]([O-])c1ccccc1/C=C/C=NN1CCCCC1	0.8	0.67
COc1cc(C=NNC(=O)c2ccc(CSc3nc4ccccc4[nH]3)cc2)cc(OC)c1OC	-13	0.7
CC(C)Oc1ccccc1C=NNC(=O)c1ccc(F)cc1	3.3	0.72
COc1ccc(OC)c(-c2cc(C(=O)NN=Cc3cc(OC)c(OC)cc3OC)c3ccccc3n2)c1	-236	0.6
COc1ccc(OCCn2c(C)c(C=Nn3cnnc3)c3ccccc32)cc1	4.9	0.77
O=C1Nc2ccccc2C1=NN1CCOCC1	5.3	0.64
Cc1cccc(OCC(=O)NN=Cc2cn[nH]c2-c2ccc(Cl)c(Cl)c2)c1	2.4	0.76
COc1ccc(COC(=O)NN=C(C)CC(=O)NCc2ccc(Cl)cc2)cc1	1.3	0.68
CCCc1cc(=O)[nH]c(N=C(NC(=O)C(C)N2C(=O)c3ccccc3C2=O)Nc2ccccc2)n1 (stereo unspecified)	-0.2	0.71
NC(=NOC(=O)COc1ccc(Br)cc1)c1cccc([N+](=O)[O-])c1	1.4	0.72
C(=NNc1nc(N2CCCCC2)nc(N2CCCCC2)n1)c1c[nH]c2ccccc12	38*	0.71
O=C(NC(C(=O)NN=Cc1cc([N+](=O)[O-])ccc1O)c1n[nH]c(=O)c2ccccc12)c1ccccc1 (stereo unspecified)	14	0.63
CCc1n[nH]c2c1C(=NO)CCC2	-0.9	0.72
CC=NNC(=O)CNC(=O)CNC(=O)c1ccccc1	4.1	0.68
CC(C)(C)c1ccc(C=NNC(=O)C[n+]2ccccc2)cc1	2.4	0.64
CCCCC1SC(=NN=Cc2ccc(OC)cc2)N(Cc2ccc(OC)cc2)C1=O (stereo unspecified)	4.6	0.74
Cc1cc(C(=O)NN=Cc2cc(Br)ccc2OC(=O)c2ccccc2)n[nH]1	5.7	0.72
Cc1nn(C)c(Cl)c1C=NOC(=O)c1ccccc1	0.1	0.6
CCC(C)NC(=O)CON=Cc1ccccc1OC(F)F (stereo unspecified)	1.3	0.66
COc1ccc(NN=C(C)C(=NO)C(=O)Nc2ccccc2)cc1	5.7	0.66
O=C(O)c1ccc(NN=C/C=C/c2ccc([N+](=O)[O-])o2)cc1	30*	0.63
(list continues)
SMILES	UCH37 inh	E coli growth
COc1ccc(OC)c(C=NNC(=O)c2cccc3ccccc23)c1	-176	0.62
O=C(NN=Cc1ccc[nH]1)c1c[nH]c2ccccc12	6.3	0.63
CC(CC(=O)Nc1ccc2c(c1)OCCO2)=NNC(=O)Cc1ccc(Cl)cc1	1.8	0.67
COc1cc(C=NNC(=O)CNc2n[nH]c(=O)[nH]c2=O)ccc1O	4.3	0.71
CC1(C)S/C(=N/N=Cc2cccs2)NC1=O	13	0.74
COc1ccccc1C(=O)NN=C(C)c1cccnc1	2.2	0.69
CC(CC(=O)c1ccccc1)=NNC(=O)CC#N	1.1	0.64
COC(=O)/C=C1/S/C(=N/N=Cc2ccc(N(C)C)cc2)NC1=O	4.3	0.65
Cc1n[nH]c(=S)c2nn(-c3ccccc3)c(C)c12	2.5	0.74
CCC(=NN=C(CC)c1ccccc1N)c1ccccc1N	2.6	0.7
Fc1cccc(C=NNc2nncc3ccccc23)c1	5.3	0.66
CC(=NN=C(C)c1cccc(N)c1)c1cccc(N)c1	5.7	0.64
COc1cccc(C=Nn2c(C3CCCCC3)n[nH]c2=S)c1O	6.7	0.65
COCc1[nH][nH]c(=O)c1C=NN1CCOCC1	6.1	0.7
COC(=O)C1CC(=NNS(=O)(=O)c2ccc(C)cc2)CS1 (stereo unspecified)	1.7	0.7
Cc1cc(C=NNC(N)=S)c(C)n1-c1cccc(Cl)c1	3.8	0.7
Cc1ccc(C=NNC(=O)CNC(=O)COc2ccc(Cl)cc2)o1	0.7	0.65
O=[N+]([O-])c1ccc(C=NNc2ncc(-c3ccccc3)cn2)cc1	5.1	0.63
COc1cc(C=NNC(=O)c2ccc(Cl)cc2)ccc1Oc1ccc([N+](=O)[O-])cn1	4.1	0.7
O=[N+]([O-])c1cc(C=NO)ccc1Oc1ccc(F)cc1	4.3	0.7
COc1cccc(C=Nn2cnc3c(cnn3-c3ccccc3)c2=O)c1	6.0	0.68

These rows are one share of the data; the hit share may differ from the screen's.
